ugtP null kill: growth inhibition of ugtP-null S. aureus, primary screen, RN4220 ugtP deletion, OD600; 16 h; some inactives read as strong as hits; growth inhibition, % (no concentration beside the values); hit rate 0.54% among 330,000;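 active means z-score under -3 and OD600 up to 0.15 on both plates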;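 further: plate controls were untreated wells for no effect and antibiotic for full effect; wells of about 80 µL received 100 nL stock; the first replicate is given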
Mtb hypoxia rep: PubChem AID 1159583; M. tuberculosis hypoxia-regulated fluorescent reporter, fluorescence; fluorescence inhibition, % (no concentration beside the values); hit rate 0.1% among 300,000;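 active means 35 to 45% if threefold the growth effect, above 45% if 1.5-fold the growth effect; inactive means the rest, general growth blockers included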;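 further: wells of about 50 µL received 100 nL stock; 0% = vehicle wells and 100% = reference inhibitor wells; whole bacteria with a GFP reporter of the hypoxia response; strong numbers were not always called active; many hits fall short of the cut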
BJeLR viability: MLPCN primary cell-based screen for lethality selective to Ras in HRASV12 cells | BJeLR (HRASV12) viability, CellTiter-Glo ATP luminescence, 48 h; reference of the scale not given here | inhibition, % (test concentration not listed) | hit rate 0.17% among 300,000 | AID 1554, 2009;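 active means replicate mean above 50%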;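 further: 50 nL library stock added to about 25 µL; numbers are from one replicate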
PrP 5UTR inh: inhibition of PrP 5' UTR reporter expression | cell-based PrP 5' UTR mRNA reporter, plate reader | inhibition, % (concentration not given with the values) | hit rate 0.35% among 340,000 | AID 488862, 2010;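 active means every replicate at 50% or more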;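 further: 0 = median of the neutral control wells; tested in H4 reporter cells; numbers are from one replicate; inactives centre near -14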
Sa RN4220 lethal: growth inhibition of S. aureus RN4220, primary screen, OD600. 16 h. inhibition, % (concentration not given with the values). hit rate 0.33% among 330,000;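 active means z-score of -3 or lower and OD600 up to 0.18 on both plates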;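 further: plate controls were untreated cells for no effect and reference antibiotic for full effect; stock transfer was 100 nL into about 80 µL; one replicate is shown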
Autofluor counter: counter-screen for toxin protease inhibitors: compound fluorescence. compound autofluorescence counterscreen, microsphere flow cytometry; hits give high values. fluorescence intensity (test concentration not listed). hit rate 3.1% among 360,000. AID 624483;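 active means at least 3 SD above the mean of all compounds, about 16000 in these data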;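 further: 100 nL of 1 mM stock went into each well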
Mtb hypoxia rep growth: also measured in Mtb hypoxia rep; calls as there; growth inhibition, %; measured here: M. tuberculosis growth (absorbance);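 0% = vehicle and 100% = reference antibiotic; read after six days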
Active calls of the source: *.

How did CN(C)S(=O)(=O)c1cc(NC(=O)CN2C(=O)NC3(CCCc4ccccc43)C2=O)ccc1Cl (stereo unspecified) do in these assays?
ugtP null kill: -3; Mtb hypoxia rep: 7; BJeLR viability: -18; PrP 5UTR inh: 1; Sa RN4220 lethal: -6.6; Autofluor counter: 2248; Mtb hypoxia rep growth: 13

Results for O=C(Nc1ccccn1)C(NS(=O)(=O)c1cccc2nsnc12)c1ccccc1 (stereo unspecified) ?
ugtP null kill: -4; Mtb hypoxia rep: 7; BJeLR viability: 3; PrP 5UTR inh: -6; Sa RN4220 lethal: 7.7; Autofluor counter: 4222; Mtb hypoxia rep growth: 8

How did O=C(COc1ccc(Cl)cc1)Nc1ccc(N2CCN(C(=O)c3ccco3)CC2)cc1 do in these assays?
ugtP null kill: -12; Mtb hypoxia rep: 2; BJeLR viability: 3; PrP 5UTR inh: -9; Sa RN4220 lethal: 12; Autofluor counter: 9141; Mtb hypoxia rep growth: 13

Results for CC(C)NC(=O)C1CCN(C2CCN(Cc3nc4ccccc4s3)CC2)CC1 ?
ugtP null kill: -2; Mtb hypoxia rep: -1; BJeLR viability: 5; PrP 5UTR inh: -7; Sa RN4220 lethal: -3.5; Autofluor counter: 4524; Mtb hypoxia rep growth: -2

How did CCCOc1ccccc1-c1nc(SCCC(=O)O)n[nH]1 do in these assays?
ugtP null kill: 8; Mtb hypoxia rep: 5; BJeLR viability: 5; PrP 5UTR inh: -1; Sa RN4220 lethal: 6.2; Autofluor counter: 14888; Mtb hypoxia rep growth: 5

What do the screens show for `COc1cc(C(=O)NN=Cc2cccc(Oc3ccccc3)c2)ccc1O`?
ugtP null kill: 6; Mtb hypoxia rep: 4; Sa RN4220 lethal: 0.5; Mtb hypoxia rep growth: 2

Results for CCCn1c2c(c(O)c(C(=O)NCCCN(CC)CC)c1=O)CCCC2 ?
ugtP null kill: 25; BJeLR viability: -1; PrP 5UTR inh: -3; Sa RN4220 lethal: 4.0; Autofluor counter: 3050

What do the screens show for `COc1ccc(CNC(=O)COC(=O)c2ccc3c(c2)OCCO3)cc1`?
ugtP null kill: -3; Mtb hypoxia rep: 12; BJeLR viability: 16; PrP 5UTR inh: -8; Sa RN4220 lethal: -8.2; Autofluor counter: 3315; Mtb hypoxia rep growth: 13

What do the screens show for `O=C(O)CCCCCN1C(=O)C(O)=C(C(=O)/C=C/c2ccccc2)C1c1ccc2c(c1)OCO2` (stereo unspecified)?
ugtP null kill: 0; Mtb hypoxia rep: 1; BJeLR viability: -1; PrP 5UTR inh: -22; Sa RN4220 lethal: 1.5; Autofluor counter: 3471; Mtb hypoxia rep growth: 4

What do the screens show for `CC(NC(=O)COC(=O)c1ccc2c(=O)n3c(nc2c1)CCCCC3)c1ccccc1` (stereo unspecified)?
ugtP null kill: 2; Mtb hypoxia rep: 3; PrP 5UTR inh: -17; Sa RN4220 lethal: 3.0; Autofluor counter: 9039; Mtb hypoxia rep growth: -2

What do the screens show for `N=C1SC(CC(=O)Nc2ccc([N+](=O)[O-])cc2)C(=O)N1c1ccccc1` (stereo unspecified)?
ugtP null kill: 0; Mtb hypoxia rep: 10; BJeLR viability: -5; PrP 5UTR inh: -62; Sa RN4220 lethal: 3.0; Autofluor counter: 3754; Mtb hypoxia rep growth: 16

How did Cc1ccc(C(=O)N/C(=C/c2cccnc2)C(=O)NCc2ccco2)cc1 do in these assays?
BJeLR viability: 2; PrP 5UTR inh: -13; Autofluor counter: 8054

How did O=C(c1ccc2c(=O)n(Cc3ccccc3Cl)c(=S)[nH]c2c1)N1CCCC1 do in these assays?
ugtP null kill: 2; Mtb hypoxia rep: -3; BJeLR viability: -11; PrP 5UTR inh: -15; Sa RN4220 lethal: -2.0; Autofluor counter: 6117; Mtb hypoxia rep growth: 1

How did Oc1ccccc1-c1nc2c3ccccc3c3ccccc3c2[nH]1 do in these assays?
ugtP null kill: 98*; Mtb hypoxia rep: 3; BJeLR viability: 3; PrP 5UTR inh: -17; Sa RN4220 lethal: 100*; Autofluor counter: 3871; Mtb hypoxia rep growth: 4

What do the screens show for `COc1ccc(Br)cc1C=NNC(=O)CN1CCN(Cc2ccccc2)CC1`?
ugtP null kill: 3; Mtb hypoxia rep: 1; Sa RN4220 lethal: -1.2; Mtb hypoxia rep growth: 2

Results for Nc1nc(NCCOCCO)nc(Nc2cccc(F)c2)c1[N+](=O)[O-] ?
ugtP null kill: 5; Mtb hypoxia rep: 15; BJeLR viability: -5; PrP 5UTR inh: -4; Sa RN4220 lethal: 6.8; Autofluor counter: 3845; Mtb hypoxia rep growth: 0

Results for COc1ccccc1CC(=O)NC(=O)c1ccccc1O ?
ugtP null kill: -1; Mtb hypoxia rep: 5; BJeLR viability: 0; Sa RN4220 lethal: 4.3; Autofluor counter: 3205; Mtb hypoxia rep growth: -1

Results for CCN(Cc1ccccc1)S(=O)(=O)c1ccc(S(=O)(=O)N(Cc2cccc(OC)c2)CC2CCCO2)cc1 (stereo unspecified) ?
ugtP null kill: 9; Mtb hypoxia rep: 6; BJeLR viability: 3; Sa RN4220 lethal: 5.1; Autofluor counter: 8127; Mtb hypoxia rep growth: -1

Results for CC(C)CN1C(=O)N(c2ccc(Cl)cc2)C(C)(O)CC1(C)C (stereo unspecified) ?
ugtP null kill: 7; Mtb hypoxia rep: 3; BJeLR viability: -9; PrP 5UTR inh: -20; Sa RN4220 lethal: -1.7; Autofluor counter: 3737; Mtb hypoxia rep growth: 5

How did Cn1c(SCC(=O)N2CCCc3ccccc32)nnc1-c1cccs1 do in these assays?
ugtP null kill: 3; Mtb hypoxia rep: -7; BJeLR viability: -10; PrP 5UTR inh: 7; Sa RN4220 lethal: -0.2; Autofluor counter: 23321*; Mtb hypoxia rep growth: 0

What do the screens show for `Cc1ccc2c(CC(=O)N3CCc4ccccc43)coc2c1`?
ugtP null kill: 4; Mtb hypoxia rep: 4; BJeLR viability: 11; PrP 5UTR inh: -112; Sa RN4220 lethal: 5.1; Autofluor counter: 4737; Mtb hypoxia rep growth: 3

Results for Nc1ncnc2c1ncn2[C@@H]1O[C@H](CNS(=O)(=O)c2cc(S(=O)(=O)c3ccccc3)cs2)[C@@H](O)[C@H]1O ?
ugtP null kill: 9; Mtb hypoxia rep: -9; PrP 5UTR inh: 0; Sa RN4220 lethal: 2.3; Autofluor counter: 3553; Mtb hypoxia rep growth: 3

Results for CC1CC(C(F)F)n2nc(C(=O)O)cc2N1 (stereo unspecified) ?
ugtP null kill: 10; Mtb hypoxia rep: 4; BJeLR viability: -5; PrP 5UTR inh: -24; Sa RN4220 lethal: 2.3; Autofluor counter: 11276; Mtb hypoxia rep growth: -2

Results for COc1ccc(C=NNc2nc3c([nH]2)c(=O)n(C)c(=O)n3C)cc1 ?
ugtP null kill: 2; Mtb hypoxia rep: 5; PrP 5UTR inh: -19; Sa RN4220 lethal: 2.9; Autofluor counter: 4184; Mtb hypoxia rep growth: 4

What do the screens show for `CCn1cc([N+](=O)[O-])nc1C`?
ugtP null kill: 2; Mtb hypoxia rep: 10; BJeLR viability: 3; PrP 5UTR inh: -8; Sa RN4220 lethal: 2.7; Autofluor counter: 1930; Mtb hypoxia rep growth: 5

What do the screens show for `O=C(Nc1ccc(-c2nnc3n2CCCCC3)cc1)c1cc2ccccc2o1`?
ugtP null kill: -6; Mtb hypoxia rep: -8; BJeLR viability: 6; PrP 5UTR inh: -16; Sa RN4220 lethal: 3.3; Autofluor counter: 7241; Mtb hypoxia rep growth: 3

What do the screens show for `COc1ccc([N+](=O)[O-])cc1NC(=O)Cc1ccc(Cl)cc1`?
ugtP null kill: -1; Mtb hypoxia rep: -5; BJeLR viability: 4; PrP 5UTR inh: -4; Sa RN4220 lethal: 2.7; Autofluor counter: 2033; Mtb hypoxia rep growth: -2

How did O=C(CN1CCCCC1)n1c2ccccc2c2ccccc21 do in these assays?
ugtP null kill: 9; Mtb hypoxia rep: 2; BJeLR viability: 8; PrP 5UTR inh: -3; Sa RN4220 lethal: -2.7; Autofluor counter: 3684; Mtb hypoxia rep growth: 6

What do the screens show for `COC(=O)C1=C(C)N=C2SCCC(=O)N2C1c1cccs1` (stereo unspecified)?
ugtP null kill: -1; Mtb hypoxia rep: 10; BJeLR viability: 4; PrP 5UTR inh: -14; Sa RN4220 lethal: 3.9; Autofluor counter: 3337; Mtb hypoxia rep growth: 8

How did Cc1cc(O)c(C=NNc2ccc(F)cc2)c(=O)o1 do in these assays?
ugtP null kill: 14; Mtb hypoxia rep: 19; Sa RN4220 lethal: 5.9; Mtb hypoxia rep growth: 0

What do the screens show for `COc1cc(C(=O)NCC(=O)OCC(=O)c2cccc3ccccc23)cc(OC)c1OC`?
ugtP null kill: 0; Mtb hypoxia rep: 4; BJeLR viability: 1; PrP 5UTR inh: -10; Sa RN4220 lethal: 6.3; Autofluor counter: 5504; Mtb hypoxia rep growth: 5

Results for COc1ccc(C=NNC(=O)c2cccnc2)cc1CSc1ccccn1 ?
ugtP null kill: 5; Mtb hypoxia rep: 11; Sa RN4220 lethal: 0.6; Mtb hypoxia rep growth: 6

What do the screens show for `CCOc1ccc(S(=O)(=O)N2CCCCC2)cc1NC(=O)CSCc1c(C)noc1C`?
ugtP null kill: 7; Mtb hypoxia rep: 4; BJeLR viability: 1; PrP 5UTR inh: -5; Sa RN4220 lethal: 0.9; Autofluor counter: 4812; Mtb hypoxia rep growth: -3

Results for COc1cc(C=c2sc3n(c2=O)CCCN=3)ccc1O ?
ugtP null kill: 1; Mtb hypoxia rep: -3; Sa RN4220 lethal: -2.7; Mtb hypoxia rep growth: -22

What do the screens show for `Cc1onc(-c2ccccc2Cl)c1C(=O)Nc1ccccc1`?
ugtP null kill: 3; BJeLR viability: -6; PrP 5UTR inh: -12; Sa RN4220 lethal: -0.2; Autofluor counter: 3625

How did O=C1N[C@@H](Cc2ccccc2)COC(=O)[C@H](Cc2ccc(F)cc2)C/C=C\C[C@H]1CC(=O)N(CCO)Cc1ccccc1 do in these assays?
ugtP null kill: -10; Mtb hypoxia rep: -1; PrP 5UTR inh: -12; Sa RN4220 lethal: -0.7; Autofluor counter: 3440; Mtb hypoxia rep growth: 3

How did CC(=O)Nc1c(Cl)cc2c(c1Cl)C(=O)c1ccccc1-2 do in these assays?
ugtP null kill: 2; Mtb hypoxia rep: 12; PrP 5UTR inh: -18; Sa RN4220 lethal: 13; Autofluor counter: 2674; Mtb hypoxia rep growth: 9

Results for O=C(c1noc2c1CCCC2)N1CCCCC1 ?
ugtP null kill: 0; Mtb hypoxia rep: 19; BJeLR viability: 9; PrP 5UTR inh: -20; Sa RN4220 lethal: 0.9; Autofluor counter: 11397; Mtb hypoxia rep growth: 24

How did Cc1cccc(N2CCN(C(=O)c3ccncc3)CC2C)c1 (stereo unspecified) do in these assays?
ugtP null kill: 5; Mtb hypoxia rep: 11; BJeLR viability: 5; PrP 5UTR inh: -20; Sa RN4220 lethal: 4.1; Autofluor counter: 3655; Mtb hypoxia rep growth: 13

What do the screens show for `N#CCC(=O)N/N=C/c1ccc(N2N=C(c3ccccc3)CC2c2ccccc2)cc1` (stereo unspecified)?
BJeLR viability: 0; PrP 5UTR inh: -13; Autofluor counter: 5307

5 compounds picked at random from the list so far:
How did CC(=O)Nc1c(Cl)cc2c(c1Cl)C(=O)c1ccccc1-2 do in these assays?
ugtP null kill: 2; Mtb hypoxia rep: 12; PrP 5UTR inh: -18; Sa RN4220 lethal: 13; Autofluor counter: 2674; Mtb hypoxia rep growth: 9

Results for COc1cc(C=c2sc3n(c2=O)CCCN=3)ccc1O ?
ugtP null kill: 1; Mtb hypoxia rep: -3; Sa RN4220 lethal: -2.7; Mtb hypoxia rep growth: -22

Results for COc1ccc(C=NNC(=O)c2cccnc2)cc1CSc1ccccn1 ?
ugtP null kill: 5; Mtb hypoxia rep: 11; Sa RN4220 lethal: 0.6; Mtb hypoxia rep growth: 6

Results for O=C(c1noc2c1CCCC2)N1CCCCC1 ?
ugtP null kill: 0; Mtb hypoxia rep: 19; BJeLR viability: 9; PrP 5UTR inh: -20; Sa RN4220 lethal: 0.9; Autofluor counter: 11397; Mtb hypoxia rep growth: 24

What do the screens show for `N#CCC(=O)N/N=C/c1ccc(N2N=C(c3ccccc3)CC2c2ccccc2)cc1` (stereo unspecified)?
BJeLR viability: 0; PrP 5UTR inh: -13; Autofluor counter: 5307

Assay outcomes (PubChem BioAssay)
